NPYLR7 ag: agonists of mosquito NPYLR7 receptor, primary screen, cell-based, Aedes aegypti, calcium fluorescence, mosquito biting behavior. Aedes aegypti neuropeptide Y-like receptor 7 (NPYLR7). HEK293T NPYLR7/Galpha15, GCaMP6s calcium fluorescence. activation, % at 10 µM. 0.15% of 270,000 active. AID 1259423, 2018; in the data active = activation above about 40%;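 also: 0% = vehicle and 100% = reference agonist at the receptor; some compounds past the cut are filed as inactive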
NPYLR7 ag max-min: also measured in NPYLR7 ag; calls as there; activation, %; measured here: Max-Min RFU normalised activation; some inactives read as strong as hits;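 span of the calcium signal over five minutes; 0% = vehicle and 100% = native peptide agonist; compound fluorescence can raise it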
* hit, by the source's call; & = joins results of further samples. Some of the compounds tested; rates above refer to the full screens.

Preview (2 entries):
SMILES	NPYLR7 ag	NPYLR7 ag max-min
Cc1c(Cl)c(C(=O)N2CCCC(O)(CN(C)C)C2)nn1C (stereo not drawn)	4	2
Oc1cc(O)c2c(c1)OC(c1ccc(O)c(O)c1)C(O)C2 (stereo not drawn)	1	-6

Results, from the start:
SMILES	NPYLR7 ag	NPYLR7 ag max-min
Cc1c(Cl)c(C(=O)N2CCCC(O)(CN(C)C)C2)nn1C (stereo not drawn)	4	2
Oc1cc(O)c2c(c1)OC(c1ccc(O)c(O)c1)C(O)C2 (stereo not drawn)	1	-6
CCc1cc(-c2n[nH]c(C)c2-c2nc3ccccc3s2)c(O)cc1O	-2	-2
COc1cc(/C=C2\NC(=S)NC2=O)cc(OC)c1O	27	32
Cc1ccc(-n2nc(-c3ccccc3)c3c2N(CC(=O)NCc2ccco2)C(=O)CSC3c2sccc2C)c(C)c1 (stereo not drawn)	1	-5
CC(=O)c1ccc(NC(=O)CSc2nc(=O)n3ccc(C)cc3n2)cc1	2	1
Cc1ccccc1-c1nc(OCC(C)C)nn1-c1ccc(NC(=O)c2ccccc2Br)cc1	-13	-16
Cc1cc(NC(=O)c2ccc3c(c2)OCCO3)ccc1N1CCCC1=O	4	2
Cc1nc(SCC(=O)O)c2c(C)c(C)sc2n1	10	19
COCC(c1ccccn1)N(C)C(=O)c1ccc(F)c(OC)c1F (stereo not drawn)	-5	-3

Given with values under each structure: part of the list above
Order of values – NPYLR7 ag | NPYLR7 ag max-min
Cc1c(Cl)c(C(=O)N2CCCC(O)(CN(C)C)C2)nn1C (stereo not drawn)
→ 4 | 2
Oc1cc(O)c2c(c1)OC(c1ccc(O)c(O)c1)C(O)C2 (stereo not drawn)
→ 1 | -6
CCc1cc(-c2n[nH]c(C)c2-c2nc3ccccc3s2)c(O)cc1O
→ -2 | -2
COc1cc(/C=C2\NC(=S)NC2=O)cc(OC)c1O
→ 27 | 32
Cc1ccc(-n2nc(-c3ccccc3)c3c2N(CC(=O)NCc2ccco2)C(=O)CSC3c2sccc2C)c(C)c1 (stereo not drawn)
→ 1 | -5
CC(=O)c1ccc(NC(=O)CSc2nc(=O)n3ccc(C)cc3n2)cc1
→ 2 | 1

Molecules shown so far containing a halogen (three):
SMILES	NPYLR7 ag	NPYLR7 ag max-min
Cc1c(Cl)c(C(=O)N2CCCC(O)(CN(C)C)C2)nn1C (stereo not drawn)	4	2
Cc1ccccc1-c1nc(OCC(C)C)nn1-c1ccc(NC(=O)c2ccccc2Br)cc1	-13	-16
COCC(c1ccccn1)N(C)C(=O)c1ccc(F)c(OC)c1F (stereo not drawn)	-5	-3

Returning to the listing; the 2 compounds before the break are reprinted first.
SMILES	NPYLR7 ag	NPYLR7 ag max-min
Cc1nc(SCC(=O)O)c2c(C)c(C)sc2n1	10	19
COCC(c1ccccn1)N(C)C(=O)c1ccc(F)c(OC)c1F (stereo not drawn)	-5	-3
c1ccc(-c2ncn(CC3CNCCO3)c2-c2cccn2-c2cccnc2)cc1 (stereo not drawn)	16	3
Cc1ccccc1N1CCN(C2CCCN(C(=O)Cn3nc4ccccc4n3)C2)CC1 (stereo not drawn)	6&11	2&4
O=C(CCOc1ccccc1)N1CCCC(CNC(=O)C2(c3ccc(Cl)cc3)CC2)C1 (stereo not drawn)	2	-3
CCC1c2cccn2CCN1Cc1cn(CCC(N)=O)c2ccccc12 (stereo not drawn)	9	-4
COc1ccc(CCOc2nc(-c3ccccc3F)n(-c3cccc(NC(=O)Nc4cccc(OC)c4)c3)n2)cc1	17	20
O=C(OCc1cc(=O)oc2cc3c(cc12)CCC3)c1ccc(Br)o1	1	7
O=C(C1CCc2ccccc2O1)N1CCC(Cn2cc(C3CC3)nn2)CC1 (stereo not drawn)	8	0
CO[C@H]1CC(O[C@@H]2/C(C)=C/C[C@@H]3C[C@@H](C[C@]4(CC[C@H](C)[C@@H](C5CCCCC5)O4)O3)OC(=O)[C@@H]3C=C(C)/C(=N\O)[C@H]4OC/C(=C\C=C\[C@@H]2C)[C@]43O)O[C@@H](C)C1O (stereo partly drawn)	-17	-24
O=C(NC1CC1)C1CCN(S(=O)(=O)N2CCOCC2)CC1	11	2
NC(=O)c1cccc(CC2CCN(C(=O)CCc3cccnc3)C2)c1 (stereo not drawn)	7	2
Cc1nc(N2CCC(C(=O)NCCSc3nncn3C)CC2)nc2ccc(C(C)C)cc12	22	8
CN1CC2(CCN(C(=O)c3ccc4nc(CO)[nH]c4c3)C2)OC1=O (stereo not drawn)	8	5
COC(=O)C1=C(C)NC(C)=C(C(=O)OC)C1c1ccc(OC)c(OC)c1	10	8
COc1cc(S(=O)(=O)NC2CC(C)(C)NC(C)(C)C2)c(OC)cc1Cl	8	6
Cc1sc2nc(CNCc3ccco3)[nH]c(=O)c2c1C	2	13
CCc1ccc(-c2nccn2-c2ccc(Oc3nn[nH]n3)cc2)nc1	24	9
O=C(c1ccc(N2CCC(NCc3cccc4ccccc34)CC2)cc1)N1CCCC(O)C1 (stereo not drawn)	10	0
CS(=O)(=O)NCCc1ccc(C(=O)Nc2ccc(C(F)(F)F)cc2)cc1	12	11
CCOc1ccc(NC(=O)CSc2ccc(NC(=O)C3CC3)nn2)cc1	-2	-4
CC1(Cc2ccccc2OC(F)(F)F)C(=O)Nc2c(Cl)ccc(Cl)c21 (stereo not drawn)	-4	0
COc1ccc(C=C(C#N)C(=O)Nc2ncc(Cc3ccc(OC)cc3)s2)cc1	-2	-5
CC(C)c1ccc(NC2CCCN(C(=O)c3ccc4c(c3)OCO4)C2)cc1 (stereo not drawn)	-2	-1
O=C(NCc1cccnc1)C1CCCN(C2CCN(c3cnccn3)CC2)C1 (stereo not drawn)	4	4
Cn1c(SCC(=O)NN=C2CC3CCC2(C)C3(C)C)nnc1-c1ccco1 (stereo not drawn)	4	8
N#Cc1ccc(OCC(O)CN2CCc3ccccc32)cc1 (stereo not drawn)	-1	-1
CCc1ccc(C(=O)N2CCCC(C(=O)NC3CCCC[C@H]3NC(=O)c3ccc(F)cc3)C2)cc1 (stereo partly drawn)	18	19
O=C(O)c1ccc(Nc2c(Oc3ccc(F)cc3)cnn(-c3ccc(F)cc3)c2=O)cc1	6	15
Cc1ccc(OCCNC(=O)N2CCN(S(=O)(=O)c3ccc(C#N)cc3)CC2)c(C)c1	-8	-9
c1ccc(CN2CCC(Nc3ncnc4sccc34)CC2)nc1	17	7
Fc1cccc(CSc2nccn3nc(-c4ccccc4)cc23)c1	1	-4
CCN(C(=O)CC(=O)Nc1cc(C)cc(C)c1)C1CCOC(C)(C)C1 (stereo not drawn)	1	-4
CCOC(=O)c1cc(C(C)c2ccccc2)sc1NC(=O)c1ccc(OC)cc1 (stereo not drawn)	14	6
COc1cc(CN(C)C(=O)c2cc(N(C)C3CCCCC3)nc3ccccc23)cc(OC)c1OC	10	6
CN1C(=O)c2ccc(NC(=O)c3ccno3)cc2C1=O	6	7
COc1ccc(NC(=O)c2nnn(Cc3nc(-c4cccc(OC)c4OC)oc3C)c2C)cc1	2	0
O=C(N[C@H](CO)Cc1ccccc1)c1cccnc1Nc1cccc(Cl)c1	-1	-4
COC(=O)NC1CCN(c2ccccc2C(=O)NCCc2ccccc2OC)CC1	-4	3
CN(Cc1ccc(C(F)(F)F)cc1)Cc1ccc(S(=O)(=O)N(C)C)o1	0	-4
O=C1OC(Nc2cc(Cl)cc(Cl)c2)c2ccccc21 (stereo not drawn)	13	8
Cc1c(Cl)c([N+](=O)[O-])nn1CC(=O)Nc1cc(Cl)ccc1Cl	0	-4
O=C(NC1c2ccccc2-c2ccccc21)c1cc2n(n1)CCCNC2	-1	1
COCCN(Cc1nc(C(=O)NC(C)CCc2ccccc2)cs1)C(=O)Nc1ccc(C(C)C)cc1 (stereo not drawn)	-3	10
COCCN(CC(=O)N(CCc1c[nH]c2ccccc12)Cc1ccc(F)cc1)C(=O)COc1ccccc1	-10	-4
CN(CCCN1c2ccccc2CCc2ccccc21)C(=O)Cc1c[nH]c2ccccc12	-4	-12
CC/C(C)=N\Oc1nc(N)nc(N(C)C)n1	3	2
CC(=O)NCCNc1ccc(Nc2cc(C)ccn2)nn1	15	5
CC(=O)NCc1ccc(-c2csc(NC(=O)c3ccc(C)o3)n2)cc1	-8	-9
O=C(CNc1ccc2c(c1)NC(=O)CC2)Nc1ccc(F)c(F)c1	-6	-7
S=c1nnc2c3ccccc3[nH]c2n1CCc1ccccc1	2	1
CN1CCN(C(=O)Nc2cccnc2N2CCCC2)C(c2ccccc2)C1 (stereo not drawn)	-1	-1

Further structures follow.
SMILES	NPYLR7 ag	NPYLR7 ag max-min
COc1ccc(C(N)=S)c(OC)c1	3	3
CC1C(=O)N(c2ccc(F)c(Cl)c2)CCN1C(=O)c1cccs1 (stereo not drawn)	-1	4
Cc1cnc2n(c1=O)C(CC(=O)N1CCCCCC1)CS2 (stereo not drawn)	-1	-1
C=CCOCC(O)CN(Cc1ccco1)Cc1ccc(F)cc1F (stereo not drawn)	17	23
Cc1nc(N2CCN(C(=O)c3cccc(Cl)c3)CC2)cc(-n2cccn2)n1	-9	-14
c1ccc(-c2ccc(N3CCC4(CCNCC4)C3)nn2)cc1	-1	-2
COc1c(Cl)cc(Cl)cc1CNc1nn[nH]n1	-10	-16
COc1ccc(CCN(C)C(=O)c2ccc(C)s2)cc1OC	-4	-16
CSc1ccc(C(NC(=O)c2c(-c3c(Cl)cccc3Cl)noc2C)c2cccc(Cl)c2Cl)cc1 (stereo not drawn)	-7	-12
CCCCCCCCC(=O)N1CCN(c2nc(COC)nc3sc4c(c23)CCCC4)CC1	-10	-4
CCc1cccc(NC(=O)COC(=O)c2cn3c(C)cccc3n2)c1	1	-2
O=C(NCCCC(=O)N1CCC(c2ccccc2)CC1)OCc1ccccc1	-8	-14
CCS(=O)(=O)c1ccccc1C(=O)N(C)c1ccc(OC)nc1	10	6
COc1ccc(CCNC(=O)CC(c2ccccc2C(F)(F)F)c2cn(C)c3ccccc23)cc1OC (stereo not drawn)	3	4
CCOC(=O)c1cc(C(C)C)sc1NC(=O)c1ccccc1F	15	8
Cn1c2c(c3ccccc31)CCOC21CCN(C(=O)NCc2cccc(F)c2)CC1	13	11
O=[N+]([O-])c1cn[nH]c1-c1cnn(-c2ccccc2)c1	3	-2
CC(Cc1cnccn1)NC(=O)c1ccc2nc(C3CC3)oc2c1 (stereo not drawn)	8	6
O=C(NCCCN1CCCCCC1=O)NCc1ccnc(N2CCCCC2)c1	5	4
O=C(NCCc1cccc(C(F)(F)F)c1)c1cc(-c2ccc3c(c2)OCO3)nc2ccccc12	-12	-15
N#Cc1ccc2ncc(/C=C/c3ncc(/C=C/C(=O)O)s3)n2c1	7	6
Cc1ccc(CN(CCN2CCOCC2)CC(O)COc2ccccc2C)o1 (stereo not drawn)	23	35
COc1ccc(Cl)cc1S(=O)(=O)NCc1ccccc1Cl	-1	-6
O=C(CCC1CCN(C(=O)CCc2ccccc2)CC1)Nc1ccc2c(c1)OCCO2	25	13
CCSc1nc(CC(=O)NCCc2c[nH]c3ccccc23)cs1	-5	-9
COc1cc(OC)cc(C(=O)Nc2nc3c(s2)CC(C)CC3)c1 (stereo not drawn)	6	5
CC(C(=O)NC1(C#N)CCCCC1)n1nnc(-c2ccc(Cl)cc2)n1 (stereo not drawn)	7	4
CC(C)(CCl)C(=O)N1CCC[C@@H]1C(=O)NCCNC(=O)c1ccc(F)cc1	5	16
Cc1ccc(-n2ncc(C(=O)NCCN(C)C)c2C(F)(F)F)cc1	-10	-5
COc1cccc(C(=O)N2CCC(C(NC(=O)C(C)C)C(=O)NCC(C)C)CC2)c1 (stereo not drawn)	-2	2
COc1ccc(-n2c(CCC(=O)NC3CCCc4ccccc43)ccc2-c2ccc(Cl)cc2)cc1 (stereo not drawn)	1	-1
CCOC1CC(O)C12CCN(Cc1nc(C)c(C)s1)CC2 (stereo not drawn)	0	-3
CCOc1ccccc1-n1c(=O)[nH]c2c(C(N)=O)nc(-c3ccc(C)o3)nc21	-2	-3
CCCc1nc(N2CCC(N3CCCC(C(=O)N4CCN(C)CC4)C3)CC2)no1 (stereo not drawn)	-2	-4
CN1C[C@H](NC(=O)C(C)(C)NC(=O)c2cccs2)C[C@H]1CO	-3	-3
CCN(C(C)=O)c1nc(/C=C(/Cl)c2nc3c(C)cccc3c(=O)[nH]2)cs1	3	1
CCN(CC)c1ccc(/C=N\NC(=O)CSc2nc3ccccc3[nH]2)c(O)c1	1	2
O=S(=O)(Nc1cccc(S(=O)(=O)NC2CC2)c1)c1cccc(C(F)(F)F)c1	0	2
O=C(Cn1nc(-c2cccs2)oc1=O)Nc1ccccc1F	-7	-8
COc1ccc(C2CC(c3ccccc3)=NN2c2ccc(S(N)(=O)=O)cc2)cc1 (stereo not drawn)	-4	-7
CCCCc1ccc(C(=O)N(CCc2ccc(OC)c(OC)c2)C(CC)c2nc3ccccc3c(=O)n2-c2ccc(CC)cc2)cc1 (stereo not drawn)	-4	7
CCCCC(CC)C(=O)N1CCN(c2ccccn2)CC1 (stereo not drawn)	-8	-9
CCOC(=O)c1c(NC(=O)CSc2nnc(-c3c[nH]c4ccccc34)o2)sc(C)c1C	-4	-7
Cn1ncc2c(NCc3ccccc3-n3ccnc3)nc(-c3cccnc3)nc21	1	1

Bioassay records (PubChem BioAssay)
